GLA inh pH 4.5: inhibitors of human alpha-galactosidase A at pH 4.5. purified enzyme, 4-MU-alpha-Gal fluorescence, pH 4.5. activity change, negative = inhibition, % at 105 µM. AID 1467. 230,000 tested, under 10 active; inconclusive = small, poorly fitted or top-dose-only inhibition, or a rising curve; inactive = flat fitted curve, though single readings scatter; no compound was filed as active;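 also: 0% = full activity with enzyme and -100% = basal without enzyme; dose as in the result columns while the protocol names 77 µM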
Target sequence (P06280 whole entry, looked up): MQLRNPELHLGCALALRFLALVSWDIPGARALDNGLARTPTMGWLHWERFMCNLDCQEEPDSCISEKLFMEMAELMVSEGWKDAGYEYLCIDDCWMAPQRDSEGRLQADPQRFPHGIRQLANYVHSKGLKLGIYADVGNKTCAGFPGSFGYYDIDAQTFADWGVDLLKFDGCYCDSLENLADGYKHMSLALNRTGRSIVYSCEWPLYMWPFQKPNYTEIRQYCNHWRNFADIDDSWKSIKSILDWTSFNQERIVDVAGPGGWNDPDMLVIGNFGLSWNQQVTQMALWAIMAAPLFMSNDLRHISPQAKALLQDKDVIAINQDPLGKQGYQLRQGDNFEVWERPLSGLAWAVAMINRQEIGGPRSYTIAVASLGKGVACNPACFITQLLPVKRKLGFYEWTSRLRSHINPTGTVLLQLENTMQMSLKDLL
miR-21 FLuc: raises the signal of a miR-21 reporter. HeLa miR-21 FLuc reporter, luciferase, 48 h. Potency, µM (top dose mostly 38.3 µM), without a hit: top-dose reporter change, positive = more light. 340,000 tested, under 10 active. AID 2288; active = well fitted rising curve with a large enough effect; inconclusive = small, poorly fitted or top-dose-only effect; inactive = no such curve, though single readings can be large or run the other way;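 also: % of control where 0% means no effect; miR-21 action dims this reporter so a rising signal means less miR-21 action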
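HeLa cells stably expressing CMV-driven firefly luciferase with a downstream miR-21 binding sequence, endogenously expressing miR-21, were treated with titrations (up to about 40uM final) for 48 hours at 37 degree Celsius. Luciferase luminescence was read after lysis.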
Rango complex inh: prevents formation of the Rango-importin beta complex; Q14974; Rango CFP/YFP FRET sensor + importin beta, 45 min; Potency, µM (titrated, usually from 92.2 µM), inactives show at the top dose inhibition of complex formation; 0.031% of 340,000 active; AID 540263; active = rising FRET ratio curve, often small or poorly fitted; inconclusive = mostly compound fluorescence or quenching in the first reads; inactive = flat curves in all reads;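 also: potency is read from the fitted curve at half-maximal effect; 0% = DMSO wells and 100% = buffer wells lacking importin beta; nearly all actives have a fitted effect of over 15% in size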
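FRET biosensor (snurportin 1 IBB flanked by EYFP and cerulean), 50 nM, with compound 5 min, then 0.125 microM importin beta in PBS, 1 mM DTT, 0.02% Tween-20, 0.1% BSA. CFP/YFP ratio read after 45 min at room temperature; pre-read flags interference.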
Rango dissoc inh: prevents RanGTP from dissociating the Rango-importin beta complex | Biochemical FRET Rango-importin beta, RanGTP-induced dissociation | 0.071% of 340,000 active | O95149+P62826 | AID 540253 | Potency, µM (titrated, usually from 46.1 µM), inactives show at the top dose activity change, negative = inhibition; active means falling FRET ratio curve, often poorly fitted, with flat reads before Ran was added; inconclusive means other falling curves, or compound fluorescence or quenching; inactive means flat or rising ratio curve;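 also: potency is read from the fitted curve at half-maximal effect; % of control where 0% means no effect; nearly all actives have a fitted effect of over 45% in size; -100% = wells without RanGTP and RCC1; the record marks most hits as doubtful in a second field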
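Compounds sat 5 min at room temperature with 0.1 uM Rango biosensor plus 0.25 uM importin beta, then FRET pre-read. RanGTP-RCC1 (0.6 uM Ran, 2mM GTP, 0.2 uM RCC1) added for 45 min, and the CFP/YFP post-read measured blocked complex dissociation.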
* marks the source's active call; other numbers are inactive results; ? = inconclusive; nt = not tested or not shown.

Rango dissoc inh	SMILES	Rango complex inh	miR-21 FLuc	GLA inh pH 4.5
-15.0%	CCOC(=O)COc1cc(Br)c(/C=N/Nc2ccccc2)cc1OC	-1.5%	2.8%	2.0
15.0%	COc1ccc(/C=C/C(=O)c2ccc(NC3=NCCCS3)cc2)cc1OC	?	28.5%	-9.7
3.9%	COC(=O)c1cccc(NC(=S)Nc2ccc(Cl)c(Cl)c2)c1	1.6%	16.4%	3.4
6.2%	COc1ccc(NS(=O)(=O)c2cccc(NC(=O)NCCCl)c2)cc1	2.5%	-0.1%	-11.1
21.7%	CC1NC(=S)N(C2CCCCC2)C1=O (configuration not stated)	5.3%	-0.3%	4.2
2.0%	CSc1cccc(NC(=O)CNC(=O)C2CCCCC2)c1	0.5%	-11.7%	nt
1.4%	Cc1cc(NC(=O)CSc2nnc(-c3ccoc3C)o2)no1	-0.7%	-8.4%	2.7
-0.5%	c1ccc(OCc2ccc(CCCN3CCOCC3)cc2)cc1	0.2%	-12.1%	nt
8.7%	CCn1c(=N)n(CCOc2ccc(OC)cc2)c2ccccc21	-2.1%	3.8%	4.4
9.4%	CCOC(=O)c1c(C)c(C(=O)N(C)C2CCCCC2)c(C)n1C	-0.5%	-35.9%	8.4
20.5%	Cc1ccc(C)c(Nc2nn3c(=O)c4ccc(C(=O)NCc5cccnc5)cc4nc3s2)c1	-0.3%	-3.0%	nt
0.7%	CCOC(=O)c1ccccc1NC(=O)c1ccc(NS(C)(=O)=O)cc1	0.3%	-20.3%	5.2
-7.7%	O=C(c1ccccc1F)N1CCN(c2ccccc2F)CC1	0.3%	-0.8%	0.1
5.4%	CC(=O)N1CCN(c2ccc(NC(=O)c3cccc(OCc4ccccc4)c3)cc2)CC1	4.6%	-3.8%	-0.8
0.6%	O=C(COC(=O)c1ccccc1NCCO)NCCc1ccccc1	0.5%	nt	nt
0.9%	O=C1NC(=O)c2c(Br)c(Br)c(Br)c(Br)c21	3.1%	nt	nt
-1.4%	O=C1c2ccccc2NC(c2ccc(Br)o2)N1O (configuration not stated)	?	nt	nt
0.4%	CC1(c2ccc(Cl)cc2)NC(=O)N(CC(=O)NC2CCCCC2)C1=O (configuration not stated)	0.7%	nt	nt
?	CCN1C(=O)c2cccc3c(S(=O)(=O)NCC4CCCO4)ccc1c23 (configuration not stated)	?	1.0%	-2.6
-5.2%	N#Cc1c(SCc2ccc(Cl)cc2)sc(C(=O)c2ccccc2)c1N	?	14.9%	1.4

Reformatted as tab-separated lines: entries from further up
SMILES	Rango dissoc inh	Rango complex inh	miR-21 FLuc	GLA inh pH 4.5
COC(=O)c1cccc(NC(=S)Nc2ccc(Cl)c(Cl)c2)c1	3.9%	1.6%	16.4%	3.4
COc1ccc(NS(=O)(=O)c2cccc(NC(=O)NCCCl)c2)cc1	6.2%	2.5%	-0.1%	-11.1
CC1NC(=S)N(C2CCCCC2)C1=O (configuration not stated)	21.7%	5.3%	-0.3%	4.2

The results go on:
Rango dissoc inh	SMILES	Rango complex inh	miR-21 FLuc	GLA inh pH 4.5
0.5%	O=C(C1CCN(S(=O)(=O)c2ccc(Cl)c(C(F)(F)F)c2)CC1)N1CCC1	-0.3%	nt	nt
-16.6%	O=C(Nc1ccccc1)Nc1nncs1	0.7%	0.6%	10.9
-0.1%	CCC12CN(C(=O)c3ccc([N+](=O)[O-])cc3)CC(CC)(CN(C(=O)c3ccc([N+](=O)[O-])cc3)C1)C2=O	0.8%	6.8%	4.6
17.1%	O=S(=O)(Nc1ccccc1)c1ccc(-c2csnn2)cc1	-1.3%	7.0%	1.3
3.8%	CCN(C(=O)COC(=O)CCc1c[nH]c2ccccc12)c1c(N)n(Cc2ccccc2)c(=O)[nH]c1=O	-1.0%	nt	nt
-9.0%	C1CN(CC2CCN(c3nc4nonc4nc3N3CCSCC3)CC2)CCO1	-1.6%	-2.4%	1.1
-9.8%	CCOC(=O)c1ccc(S(=O)(=O)N2CCN(Cc3cc4c(cc3O)OCO4)CC2)cc1	-1.9%	nt	nt
-1.4%	Cc1ncc(CSc2nccc(=O)[nH]2)c(CO)c1O	2.9%	-0.3%	nt
14.6%	O=C(Nc1cccnc1)c1ccccc1-c1ccccc1	-0.5%	-0.3%	12.0
-0.9%	C/C(CC(=O)N1CCN(C=O)CC1)=N\NC(=O)c1cccc([N+](=O)[O-])c1	-0.6%	2.9%	0.9
-1.5%	Cc1noc(C)c1CSc1ncnc2sc(C)c(C)c12	-0.2%	-11.6%	-4.4
1.4%	COc1ccc(OC)c(S(=O)(=O)NCC(c2ccco2)N2CCc3ccccc32)c1 (configuration not stated)	-1.7%	nt	nt
-7.7%	O=C(c1ccc(-c2ccccc2)cc1)C1CCCN(C(=O)c2cncs2)C1 (configuration not stated)	-5.2%	-1.4%	-5.7
-1.1%	Cc1ccc(NC(=O)CCc2ccc(S(=O)(=O)N3CCOCC3)cc2)c(Cl)c1	-5.8%	nt	nt
?	CN(Cc1c(F)cccc1Cl)C(=O)c1cccc(S(=O)(=O)NCc2ccccc2)c1	0.2%	nt	nt
-13.8%	COc1ccc(-c2cc(-c3cccs3)c(C#N)c(SCC(=O)NCc3ccco3)n2)cc1	-6.4%	20.1%	7.0
15.7%	CC(C)c1ccc(-c2nnc(SCC(=O)NC3CC3)n2C)cc1	-4.1%	-27.7%	nt
-8.8%	CCOc1cc(/C=C2\C(=N)N3N=C(C)SC3=NC2=O)ccc1OCCOc1ccccc1	-1.3%	5.3%	nt
-5.4%	Cc1ccc(NC(=O)NC2CC(=O)N(c3ccc4c(c3)OCCO4)C2)cc1F (configuration not stated)	-0.1%	nt	nt
-3.1%	O=C(C1CCN(S(=O)(=O)c2ccccc2F)CC1)N1CCc2ccccc2C1	1.2%	-3.9%	-5.6
14.6%	CCC(C)C1C(C#N)=C(N)Oc2n[nH]c(C)c21 (configuration not stated)	0.4%	12.2%	-1.8
13.4%	CCOc1ccc(NC(=S)N=Nc2c(O)[nH]c3ccccc23)cc1	-1.7%	18.2%	-8.9
-2.2%	COc1cccc(COc2ccc3c(C)cc(=O)oc3c2)c1	-3.2%	-80.6%	nt
1.3%	O=C(NNC(=O)C12CC3CC(CC(C3)C1)C2)c1cccc([N+](=O)[O-])c1	1.0%	-7.3%	nt
-1.6%	O=C(c1ccc(Cl)s1)N1CCN(c2ccccc2)CC1	-3.0%	-18.9%	-13.8
0.3%	Cc1occc(=O)c1OC(=O)Nc1ccccc1	0.6%	-15.0%	-2.9
0.6%	CC1=C(N2CCCCC2)CCC1=O	3.0%	nt	nt
-0.9%	COc1ccc(C2=NOC(C(=O)N(C)Cc3ccccc3)C2)cc1 (configuration not stated)	2.3%	-15.7%	-20.4
0.1%	CCN1CCN(C(c2ccc(F)cc2)c2nnnn2Cc2cccs2)CC1 (configuration not stated)	-4.1%	-6.7%	4.5
1.3%	O=C(NCc1ccccc1)c1nc[nH]c1C(=O)N1CCc2ccccc2C1	-1.7%	nt	nt
-7.1%	O=C(N/N=C/c1c[nH]c2ccccc12)c1ccn(Cc2ccc(Cl)cc2Cl)n1	4.2%	-2.5%	-12.7
4.5%	O=C(CSc1nc2ccccc2c(=O)n1-c1ccccc1)NCc1ccco1	-1.8%	0.2%	4.5
-16.6%	Cc1ccnc(-n2c(C)cc(/C=N/NC(=O)COc3cccc4cccnc34)c2C)c1	1.9%	0.4%	-5.6
-4.4%	CCC1(CC)Cc2ccccc2C(CC(=O)N2CCOCC2)=N1	0.3%	-1.1%	-10.6
21.5%	Cc1ccc([N+](=O)[O-])cc1NC(=O)c1ccccc1	?	-0.1%	1.0
-0.4%	COCC(=O)NC1CC(C)(C)Cc2c1cnn2-c1ccc(F)cc1 (configuration not stated)	0.5%	-9.4%	nt
-10.0%	Cc1ccc(C)c(OCC(=O)Nn2c(C)nc3ccccc3c2=O)c1	-1.9%	1.3%	-2.3
8.4%	CN(Cc1cccc(Cl)c1Cl)c1ccc(S(=O)(=O)N2CCCCC2)cc1[N+](=O)[O-]	-0.3%	-3.3%	1.8
-12.0%	CCOc1c2ccc(C(=O)NCCc3cccs3)cc2nn1CC	-0.1%	-45.1%	6.5
17.2%	O=C(COc1ncnc2ccccc12)NCCCN1CCCC1=O	1.4%	-2.4%	2.5
-6.0%	COc1ccc(NC(=S)Nc2ccc3snnc3c2)cc1	?	-37.1%	-3.3
-2.8%	COc1cc2[nH]c(=O)n3nc(-c4ccccc4)nc3c2cc1OC	2.0%	-13.8%	-29.4
4.4%	CCOC(=O)Cn1c(CN2CCN(c3cccc(Cl)c3)CC2)nc2c1c(=O)[nH]c(=O)n2C	-0.4%	1.5%	-30.0
-1.6%	CSc1cc(-c2ccccc2)[nH]c(=O)c1C#N	-0.8%	-1.4%	10.0
1.9%	CCOc1ccccc1C(=O)Nc1c[nH]c(=O)[nH]c1=O	0.7%	-17.0%	nt
-15.3%	CCc1noc(C)c1C(=O)Nc1nc(-c2ccc(OC)cc2)cs1	?	nt	nt
4.8%	CC(C)(C)NC(=S)NNC(=O)[C@H]1C[C@@H]1c1ccccc1	-0.6%	-17.6%	0.0
25.8%	O=C(CCCc1c[nH]c2ccccc12)NCCc1c[nH]c2ccccc12	0.6%	19.3%	nt
18.0%	COc1ccc(N2C(=O)CC(N(CCc3ccc(S(N)(=O)=O)cc3)C(=S)Nc3ccccc3)C2=O)cc1 (configuration not stated)	-0.2%	?	-3.6
-2.9%	CCOC(=O)c1c(C)oc2ccc(O)c(CN3CCCCC3)c12	-0.3%	-2.0%	6.6
-8.7%	CCc1ccc(/C=C(\C#N)C(=O)NC2CCS(=O)(=O)C2)cc1 (configuration not stated)	1.0%	nt	nt
2.6%	O=C(Nc1ccc2c(c1)OCCO2)c1ccc(CN2CCOCC2)cc1	-1.2%	-27.9%	4.1
-4.0%	CC1(C)CC2(CCO1)N1CC3(C)CN2CC(C)(C1)C3=O (configuration not stated)	-2.8%	nt	nt

Filtered by structure: the compounds so far with a Cl atom
Rango dissoc inh	SMILES	Rango complex inh	miR-21 FLuc	GLA inh pH 4.5
3.9%	COC(=O)c1cccc(NC(=S)Nc2ccc(Cl)c(Cl)c2)c1	1.6%	16.4%	3.4
6.2%	COc1ccc(NS(=O)(=O)c2cccc(NC(=O)NCCCl)c2)cc1	2.5%	-0.1%	-11.1
0.4%	CC1(c2ccc(Cl)cc2)NC(=O)N(CC(=O)NC2CCCCC2)C1=O (configuration not stated)	0.7%	nt	nt
-5.2%	N#Cc1c(SCc2ccc(Cl)cc2)sc(C(=O)c2ccccc2)c1N	?	14.9%	1.4
0.5%	O=C(C1CCN(S(=O)(=O)c2ccc(Cl)c(C(F)(F)F)c2)CC1)N1CCC1	-0.3%	nt	nt
-1.1%	Cc1ccc(NC(=O)CCc2ccc(S(=O)(=O)N3CCOCC3)cc2)c(Cl)c1	-5.8%	nt	nt
?	CN(Cc1c(F)cccc1Cl)C(=O)c1cccc(S(=O)(=O)NCc2ccccc2)c1	0.2%	nt	nt
-1.6%	O=C(c1ccc(Cl)s1)N1CCN(c2ccccc2)CC1	-3.0%	-18.9%	-13.8
-7.1%	O=C(N/N=C/c1c[nH]c2ccccc12)c1ccn(Cc2ccc(Cl)cc2Cl)n1	4.2%	-2.5%	-12.7
8.4%	CN(Cc1cccc(Cl)c1Cl)c1ccc(S(=O)(=O)N2CCCCC2)cc1[N+](=O)[O-]	-0.3%	-3.3%	1.8
4.4%	CCOC(=O)Cn1c(CN2CCN(c3cccc(Cl)c3)CC2)nc2c1c(=O)[nH]c(=O)n2C	-0.4%	1.5%	-30.0

Bioassay records deposited in PubChem BioAssay by National Center for Advancing Translational Sciences (NCATS).

Only part of the results is shown; count on the stated rates, not on these rows.
